# Beta cell apopt – beta cell apoptosis inhibition; hit rate 0.8% among 300,000; INS-1E cytokine-induced death, ATP luminescence, 48 h; percent of positive-control rescue, neutral wells zero; protection from apoptosis, % (concentration not given with the values);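 active means all replicates at 75% or more, or half of them and the mean; inconclusive means half reach 75% but not the mean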;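 further: 0% = cytokine-treated negative control wells and 100% = positive control rescue; higher means more ATP so stronger rescue from cytokine killing; wells of about 40 µL received 100 nL stock; the first replicate is given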
# RanGTP-Imp inh – inhibitors of RanGTP-importin-beta interaction, primary screen, biochemical, FRET, CFP-Ran, YFP-importin-beta, homogeneous; cell-free CFP-Ran/YFP-importin-beta FRET ratio; inhibition, % (concentration not given with the values); hit rate 1.1% among 300,000;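 active means most replicates above 15%; inconclusive means exactly half above 15%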;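 further: 0% = DMSO wells and 100% = Ran loaded with GDP instead of GTP; wells of about 40 µL received 100 nL stock; the first replicate is given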
# T cruzi repl – T. cruzi replication inhibition | hit rate 1.4% among 300,000 | AID 1885 | inhibition, % (concentration not given with the values) | T. cruzi beta-gal in NIH3T3, luminescence, 90 h;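 active means mean inhibition across valid replicates above about 55%, limit read from the data; inconclusive means mean below that limit but half or more replicates reach it; inactive means mean below it, under half of replicates reach it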;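 further: signal also drops with host cell toxicity which is not excluded here; 0% = plate median of DMSO wells and 100% = zero luminescence signal; higher percent means less beta-gal luminescence so fewer parasites; stock transfer was 50 nL into about 50 µL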
# rRNA inh HTS – selective bacterial rRNA inhibition in E. coli | GFP signal change (wild-type ribosome), % (test concentration not listed) | AID 720706 | hit rate 1.6% among 350,000 | E. coli WT GFP vs humanized-ribosome RFP mutants, fluorescence, 24 h; hits give low values; DMSO median 0, no signal -100;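 active means significant combined selectivity score with lowered wild-type GFP, culture density cut under 30%, mutant RFP and density less affected; inactive means any of these conditions unmet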; further: one replicate is shown; some compounds called inactive have numbers as strong as hits
# Calb FLC – affects C. albicans growth with fluconazole | C. albicans CaCi-2 (fluconazole-resistant clinical isolate) + fluconazole, Alamar Blue growth, 48 h | growth inhibition, % (test concentration not listed) | hit rate 0.57% among 300,000 | AID 1979;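 active means most replicates above 75%; inconclusive means exactly half above 75%; inactive means most below 75%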;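 further: all wells also contain fluconazole at 8 µg/ml as a sub-toxic cotreatment; 0% = median of DMSO wells and 100% = median of geldanamycin control wells; wells of about 8 µL received 7.5 nL stock; the first replicate is given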
# Vif A3G – HIV-1 Vif–A3G interaction blockers – biochemical, TR-FRET, GST-Vif 1-94, biotin-A3G peptide, dose response retest, primary screen (AID 1117319); inhibition, %, or IC50 in µM where a hit was titrated; hit rate 0.57% among 260,000; TR-FRET GST-Vif / biotin-A3G peptide binding; higher % means a stronger effect; test concentration not given here; strong numbers were not always called active;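 active means above the screen mean plus three standard deviations and confirmed in dose response; inconclusive means results disagree or hit not tested in dose response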;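 further: Vif residues 1-94 fused to GST binding biotinylated APOBEC3G peptide 110-148; 0% = full assay without inhibitor and 100% = GST in place of GST-Vif; retest series ran down from 100 µM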
# A1 inh – inhibitors of the anti-apoptotic protein A1, read as caspase activation; caspase activation, % (no concentration beside the values); MEF A1-2A-BIM cells, Caspase-Glo 3/7 luminescence, 3 h; percent of clofoctol response, vehicle zero; hit rate 0.066% among 330,000;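 active means over half of replicate activation scores above 10%, or exactly half above 10 with the replicate mean above 10; inconclusive means replicate mean below 10 yet half the replicates above 10; inactive means over half of replicates below 10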;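 further: wells of about 30 µL received 50 nL stock; many hits fall short of the cut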
# MLL AF4-AF9 inh – inhibitors of human MLL-AF4/AF9 interaction; AlphaScreen, biotin-AF4 peptide binding to FLAG-AF9; hit rate 0.47% among 350,000; AID 651704; P42568; inhibition, % at 10 µM;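 active means every replicate reaching a set inhibition limit, whatever the replicate mean, cut at about 25% in these data; inconclusive means mean inhibition reaches that limit but some replicates miss it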;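 further: 0% = plate neutral control median and 100% = total signal loss; the record names both 10 and 1 µM as test concentration; the first replicate is given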
# Target sequence (P42568 whole entry, looked up): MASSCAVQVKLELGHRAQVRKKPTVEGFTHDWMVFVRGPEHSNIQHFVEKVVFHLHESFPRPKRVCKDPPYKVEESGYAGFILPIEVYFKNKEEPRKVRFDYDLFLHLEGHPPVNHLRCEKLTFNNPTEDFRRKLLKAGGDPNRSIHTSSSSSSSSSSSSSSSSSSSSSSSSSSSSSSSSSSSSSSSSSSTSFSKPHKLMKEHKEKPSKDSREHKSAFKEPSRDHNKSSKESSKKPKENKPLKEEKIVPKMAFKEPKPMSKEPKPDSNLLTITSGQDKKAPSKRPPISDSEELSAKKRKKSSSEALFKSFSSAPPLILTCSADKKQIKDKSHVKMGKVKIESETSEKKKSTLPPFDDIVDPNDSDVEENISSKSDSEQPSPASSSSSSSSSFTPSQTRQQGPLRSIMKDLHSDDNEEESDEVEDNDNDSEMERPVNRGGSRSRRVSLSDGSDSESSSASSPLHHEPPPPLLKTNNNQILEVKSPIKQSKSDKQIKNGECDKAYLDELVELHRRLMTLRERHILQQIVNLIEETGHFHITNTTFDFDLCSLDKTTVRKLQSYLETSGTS
# rRNA inh HTS OD600 – further read-out of rRNA inh HTS, marked with its call; OD600 change, %; measured here: OD600 growth;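 optical density of the mix in the first replicate; 0 = DMSO median and -100 = no signal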
# rRNA inh HTS RFP – also measured in rRNA inh HTS; calls as there; RFP signal change, %; measured here: RFP humanized mutant strains;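 first replicate; 0 = DMSO median and -100 = no signal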
# Numbers without * were called inactive; ? = inconclusive; . = no result given; & = joins results of further samples.
Structure	rRNA inh HTS OD600	MLL AF4-AF9 inh	RanGTP-Imp inh	rRNA inh HTS RFP	Beta cell apopt	Calb FLC	A1 inh	Vif A3G	T cruzi repl	rRNA inh HTS
COc1ccc2oc(C(=O)OC/C(O)=C(\C#N)c3nc4ccccc4[nH]3)c(C)c2c1	4	-10	1.3	4.6	6	-6	0.5	-2%	1	10
CCn1c(SCC(=O)c2ccc3c(c2)OCCO3)nnc1-c1ccco1	.	.	0.0	.	-6	5	-0.5	-3%	3	.
CC(C)=NNc1nc2sc3c(c2c(=O)[nH]1)CC(C)(C)OC3	.	.	-13	.	0	0	0.9	10%	-7	.
COc1ccc(C(C(=O)NCc2ccccc2)N(C(=O)c2snc(C(N)=O)c2N)C2CCCC2)cc1O (centres undefined)	3	1.0	5.3	0.2	-5	11	-0.4	0%	8	0
Cc1nn(-c2ccccc2)c(Cl)c1C(=O)OC(C)C(=O)NC(=O)NC1CCCCC1 (centres undefined)	.	.	-2.4	.	-14	2	0.4	-3%	9	.
COC(Cc1n[nH]c(=S)n1-c1ccccc1)OC	.	.	5.5	.	-1	-10	-0.1	0%	-7	.
CC(C)=CCC/C(C)=C/CC(C)(C)CNCCN1CCNCC1	.	.	0.7	.	7	-23	0.1	-2%	?	.
Cc1cc(C)nc(N/N=C/c2ccc(N3CCOCC3)cc2)n1	7	-0.1	-1.1	5.3	8	-6	-0.9	.	-4	5
c1ccc(-c2oc3ncnc(NCCCn4ccnc4)c3c2-c2ccccc2)cc1	-82	.	-2.5	-22	.	14	-0.6	4%	49	-57
O=C(C1CCN(S(=O)(=O)N2CCCCC2)CC1)N1CCCCC1	.	.	1.2	.	-5	6	0.0	-8%	4	.
CCN(CC)P(=O)(/C(Cl)=C\Nc1c(C)n(C)n(-c2ccccc2)c1=O)N(CC)CC	.	.	5.3	.	0	-7	0.7	4%	17	.
O=C(Nc1ccc(F)cc1F)NC1CCCCCCC1	-2	-0.7	.	-0.1	3	-23	0.1	.	.	3
C/C(CC(=O)c1ccccc1)=N\NC(=O)CC#N	8	-7.6	-0.6	-0.1	3	2	0.7	2%	-13	0
CN(C)C(CNC(=O)c1ccc(Br)cc1)c1ccco1 (centres undefined)	24	1.2	-5.9	1.0	1	7	-0.4	-1%	-5	11
O=S(=O)(Nc1nccs1)c1ccc(Br)cc1	-1	-3.0	-3.3	-0.5	2	-3	-0.7	-2%	11	-2
CN1CCC(N(C)C(=O)c2ccc(Cl)c(S(=O)(=O)N3CCc4ccccc43)c2)CC1	-7	1.0	.	-0.6	7	.	1.2	.	.	1
CCOc1ccc(CCN2C(=O)C(=O)N([C@H](CCCN(C)Cc3ccccc3)CNCc3ccccc3)C[C@@H]2C(C)C)cc1	.	.	2.6	.	.	-24	.	2%	22	.
O=C(NN1CCOCC1)c1ccc(S(=O)(=O)N2CCCCC2)cc1	9	-3.2	4.5	-1.9	-7	4	0.6	.	-11	9
CC[C@@H]1CCCCc2ccccc2[C@H](C(=O)C[C@@H](O)CC(C)=O)OC1=O	-6	1.5	.	2.7	-1	.	0.8	.	.	-8
Cc1ccccc1CSCC(=O)Nc1ccccc1F	-13*	0.0	2.7	-10*	-3	11	0.2	.	-11	-25*
Cc1cc2cc(CN(Cc3nnnn3C3CCCCC3)CC3CCCO3)c(=O)[nH]c2cc1C (centres undefined)	6	8.9	?	-3.9	-2	9	0.9	5%&-5%	17	8
Oc1ccccc1CNCc1ccccc1	6	1.5	.	-5.4	9	-20	-0.1	.	-15	3
Cc1cc(C)c2c(=O)[nH]c(SCC(=O)N3CCOCC3)nc2n1	-5	-4.4	1.1	-2.3	-1	-16	0.7	.	9	3
CCc1ccccc1NC(=O)NCc1ccccn1	8	-2.6	4.2	2.3	-6	-6	-0.2	-7%	5	12
Cc1cc(C)c(S(=O)(=O)Nc2cccc(/C=C/C(=O)O)c2)c(C)c1	.	.	1.7	.	-4	10	0.5	-5%	-11	.
COC(C[C@@H]1O[C@@H]1C(=O)[C@H](C)OCc1ccccc1)OC	1	2.2	0.8	17	-5	-9	0.5	.	-16	6
CN(CC(=O)Nc1cccc(F)c1)CC(=O)N1CCc2ccccc21	-13	0.1	.	0.4	1	.	0.4	-14%	.	-8
COC(=O)C1CCN(C(=O)COC(=O)c2oc3ccccc3c2C)CC1	-9	4.9	2.0	0.0	-6	1	0.4	1%	-3	-1
COc1cccc(CN2CC(C(=O)NCCOc3cccnc3)CCC2=O)c1 (centres undefined)	2	-5.8	1.1	-0.8	.	6	.	12%	-21	3
Cc1ccc(S(=O)(=O)/N=C2\C(=O)c3ccccc3C([O-])=C2n2cc[n+](CCC(C)C)c2)cc1	.	.	-2.5	.	90*	51	0.1	3%	-6	.

# Remaining list, next part:
Structure	rRNA inh HTS OD600	MLL AF4-AF9 inh	RanGTP-Imp inh	rRNA inh HTS RFP	Beta cell apopt	Calb FLC	A1 inh	Vif A3G	T cruzi repl	rRNA inh HTS
COc1ccc(CCNC(=O)C2CC(c3ccccc3[N+](=O)[O-])=NO2)cc1 (centres undefined)	-3	4.1	2.8	-7.4	2	-5	-0.6	3%	12	-2
Oc1[nH]c(N=C2N=c3ccccc3=N2)c2ccccc12	9	-0.9	4.8	4.9	113*	64	-4.0	5%	51	8
CCc1ccccc1S(=O)(=O)Cc1ccc(C(=O)NCc2ccc3c(c2)OCO3)o1	-23	1.4	1.8	-2.5	-13	18	0.3	0%	21	-3
c1ccc(-c2nc(-c3cccnc3)cs2)cc1	-13*	1.7	2.8	-1.3*	-5	1	-2.0	-9%	-10	-24*
CN(C)S(=O)(=O)n1cc(/C=C(\NC(=O)c2ccccc2)C(=O)NCCCN2CCOCC2)c2ccccc21	-3	4.4	3.7	-1.0	7	16	1.3	.	2	-3
O=C1CCCC(=O)N1c1ccc(NCCOCCO)c([N+](=O)[O-])c1	-1	-8.6	-1.7	15	-2	3	0.3	1%	-3	6
CN(C)c1ccc(/C=N/NC(=O)CCC(=O)NCc2ccccc2)cc1	.	.	-2.2	.	-10	0	0.0	13%	-3	.
O=C(CN(Cc1ccc(F)cc1)C(=O)Cn1nnc2ccccc21)NCC1CCCO1 (centres undefined)	.	.	?	.	-7	1	0.5	8%	-7	.
CC(=O)c1cccc(NS(=O)(=O)c2cc(OCC(N)=O)c(C)cc2Cl)c1	.	.	-3.6	.	-7	-3	-0.1	-2%	-3	.
O=C(NCC1COc2ccccc2O1)C1CCN(S(=O)(=O)c2ccc(Cl)cc2)CC1 (centres undefined)	-21	-6.3	.	1.1	11	.	-0.7	-5%	.	9
COCCN(C(=O)c1cc(-c2ccncc2)nc2ccccc12)c1c(N)n(CC(C)C)c(=O)[nH]c1=O	7	5.6	2.4	-0.8	-2	.	0.7	-1%	-4	-1
CC1(C)[C@@H](O)CC[C@]2(C)C3C(O)C=C4[C@H]5C[C@@](C)(C(=O)O)CC[C@]5(C)CC[C@]4(C)[C@]3(C)CC[C@@H]12 (some centres undefined)	.	.	-0.5	.	0	22	0.7	.	-4	.
CN(C)C=Nc1nonc1-c1ccc(Cl)cc1	-6	1.4	?	-3.0	-1	-4	-0.5	-3%	-16	-1
O=C(NCCc1ccccc1)c1ccc2nc(N3CCOCC3)sc2c1	9	-2.6	5.0	-1.5	2	0	0.0	.	6	7
COc1ccc(S(=O)(=O)N2CCCC(C(=O)NC3CCCCC3)C2)cc1 (centres undefined)	.	.	0.9	.	-2	-1	0.0	-3%	-10	.
O=C(O)CC(CNS(=O)(=O)c1cccc2nsnc12)c1ccccc1 (centres undefined)	9	-11	3.2	2.7	2	-13	-1.0	2%	-7	11
O=C(Nc1ccccc1NC(=O)NC1CCCCC1)NC1CCCCC1	.	.	2.6	.	.	-27	.	-1%	6	.
CCOC(=O)c1c(CN2CCCCC2)n(C)c2cc(Br)c(O)c(CN(C)C)c12	.	.	7.7	.	.	7	-0.8	?	19	.
COc1ccc(C(C)(C)C)cc1NC(=O)Nc1ccc2c(c1)OCO2	.	.	1.6	.	5	-8	-0.1	20%	32	.
O=C(N/N=C/c1cc(O)ccc1[N+](=O)[O-])c1ccc2c(c1)OCCO2	-3	5.4	?	5.3	-7	-4	-1.7	20%	-19	-3
Cc1ccc(-c2c3c([nH]c(=S)c2C#N)CCCC3)o1	.	.	?	.	1	31	1.0	14µM*	-16	.
COc1ccc(NC(=S)NC2CCS(=O)(=O)C2)cc1 (centres undefined)	.	.	2.3	.	-9	-11	0.0	3%	9	.
Cc1nc2sc(C(=O)OC(C)C)c(N)c2c(C)c1C	11	-2.7	1.3	1.1	-2	-28	-0.2	0%	14	22
Cc1cc(C(=O)N2CCCCCC2)cs1	.	.	-3.9	.	-6	-15	0.6	-4%	-7	.
Cc1ccc(S(=O)(=O)N2CCOC2CNC(=O)C(=O)NCc2ccco2)cc1 (centres undefined)	7	0.4	6.9	3.3	-6	-7	-0.2	22%	-12	0
O=C(c1cccs1)N1CCN(C/C=C/c2ccccc2)CC1	.	.	2.9	.	-1	5	-0.1	72%	15	.
Cc1ccc(C2=N/C(=C\N(C)C)C(=O)O2)cc1	.	.	17*	.	-5	-7	0.7	6%	4	.
COc1ccc(NC(=O)C2CC2)cc1OC1CCCC1	.	.	0.9	.	-6	20	-0.8	-2%	-11	.
Cc1nc(NC(=O)COC(=O)CNC(=O)c2ccco2)c(Cl)cc1Cl	14	-1.2	.	0.8	-5	.	1.0	.	.	0
CC1CC(C)CN(C(=O)C(C)N(C)CC(=O)Nc2ccc(Cl)cc2)C1 (centres undefined)	-21	-1.6	1.0	-2.2	4	-9	-0.2	25%	1	-20

# Carrying on.
Structure	rRNA inh HTS OD600	MLL AF4-AF9 inh	RanGTP-Imp inh	rRNA inh HTS RFP	Beta cell apopt	Calb FLC	A1 inh	Vif A3G	T cruzi repl	rRNA inh HTS
Fc1ccccc1OCCSc1nnnn1-c1ccccc1	.	.	2.2	.	-4	13	-2.1	-4%	11	.
O=C(CCc1nc2ccccc2c(=O)[nH]1)OCc1cccc(C(F)(F)F)c1	.	.	?	.	.	13	0.8	7%	-15	.
Cn1c(=O)oc2cc(NC(=O)CCl)ccc21	-12	.	1.9	-3.7	19	-1	0.4	32%	-18	-3
O=C(CCC1N=C2c3ccccc3N=C(SCc3ccccc3Cl)N2C1=O)NCc1ccco1 (centres undefined)	.	.	0.2	.	-9	31	-0.4	-2%	13	.
Cc1cccc(N2CCN(C(c3ccncc3)c3nnnn3C(C)(C)C)CC2)c1C (centres undefined)	-38	2.3	0.3	1.9	-7	-21	0.5	28%	64*	-25
CN(Cc1cccnc1)C(=O)Cc1ccc(NS(=O)(=O)c2cccc(C(F)(F)F)c2)cc1	-12	-1.0	5.8	1.7	1	-10	0.7	.	32	-5
CCOC(=O)N1CCC(N2C(=O)c3ccccc3C2Nc2ccccc2)CC1 (centres undefined)	1	0.1	?	2.4	0	0	0.9	>100µM*	15	5

# Assay outcomes: PubChem, several laboratories

# This is a subset (hit frequency here may not be typical).
